BJeLR viability = kills HRASV12-expressing BJeLR cells | BJeLR (HRASV12) viability, CellTiter-Glo ATP luminescence, 48 h; reference of the scale not given here | inhibition, % (test concentration not listed) | hit rate 0.17% among 300,000 | AID 1554;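 active means replicate mean above 50%; inconclusive means above 50% but judged a plate artefact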;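 further: 50 nL library stock added to about 25 µL; numbers are from one replicate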
PrP UTR inh = suppresses PrP 5' UTR mRNA reporter expression | cell-based PrP 5' UTR mRNA reporter, plate reader | inhibition, % (concentration not given with the values) | hit rate 0.35% among 340,000 | AID 488862;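 active means every replicate at 50% or more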;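 further: 0 = median of the neutral control wells; tested in H4 reporter cells; numbers are from one replicate; inactives centre near -14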
Sa RN4220 lethal = kills Staphylococcus aureus RN4220 | AID 1259311 | hit rate 0.33% among 330,000 | inhibition, % (concentration not given with the values) | S. aureus RN4220 growth, OD600, 16 h;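 active means z-score of -3 or lower and OD600 up to 0.18 on both plates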;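 further: plate controls were untreated cells for no effect and reference antibiotic for full effect; stock transfer was 100 nL into about 80 µL; one replicate is shown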
ugtP null kill = compounds lethal to S. aureus RN4220 ugtP deletion mutant | OD600 growth, 16 h; some inactives read as strong as hits | growth inhibition, % (no concentration beside the values) | hit rate 0.54% among 330,000;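 active means z-score under -3 and OD600 up to 0.15 on both plates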;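 further: plate controls were untreated wells for no effect and antibiotic for full effect; wells of about 80 µL received 100 nL stock; the first replicate is given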
Mtb hypoxia inh = inhibitors of hypoxia-regulated fluorescent reporter in Mycobacterium tuberculosis. AID 1159583. M. tuberculosis hypoxia-regulated fluorescent reporter, fluorescence. hit rate 0.1% among 300,000. fluorescence inhibition, % (test concentration not listed);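 active means 35 to 45% if threefold the growth effect, above 45% if 1.5-fold the growth effect; inactive means the rest, general growth blockers included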;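 further: wells of about 50 µL received 100 nL stock; 0% = vehicle wells and 100% = reference inhibitor wells; whole bacteria with a GFP reporter of the hypoxia response; strong numbers were not always called active; many hits fall short of the cut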
Bead autofluor = compound fluorescence in toxin protease inhibitor counterscreen; compound autofluorescence counterscreen, microsphere flow cytometry; active compounds read high; fluorescence intensity (test concentration not listed); hit rate 3.1% among 360,000;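 active means at least 3 SD above the mean of all compounds, about 16000 in these data; inconclusive means too few beads counted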;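 further: 100 nL of 1 mM stock went into each well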
Mtb hypoxia inh growth = recorded beside Mtb hypoxia inh, whose call it bears; growth inhibition, %; measured here: M. tuberculosis growth (absorbance);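 0% = vehicle and 100% = reference antibiotic; read after six days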
* = called active by the depositor; u = inconclusive; x = no result given.

Start of the listing, in advance:
SMILES	PrP UTR inh	Bead autofluor	Mtb hypoxia inh	Sa RN4220 lethal	BJeLR viability	Mtb hypoxia inh growth	ugtP null kill
COc1cccc(NC(=O)COC(=O)CC(NC(N)=O)c2ccc(Cl)cc2)c1 (configuration not stated)	-30	6698	7	2.9	-10	4	-1
CN=C1S/C(=C\c2ccc(N3CCOCC3)c(F)c2)C(=O)N1C	-41	7703	6	0.1	2	2	2

Main list (from the top)
SMILES	PrP UTR inh	Bead autofluor	Mtb hypoxia inh	Sa RN4220 lethal	BJeLR viability	Mtb hypoxia inh growth	ugtP null kill
COc1cccc(NC(=O)COC(=O)CC(NC(N)=O)c2ccc(Cl)cc2)c1 (configuration not stated)	-30	6698	7	2.9	-10	4	-1
CN=C1S/C(=C\c2ccc(N3CCOCC3)c(F)c2)C(=O)N1C	-41	7703	6	0.1	2	2	2
O=C(Nc1ncccc1Cl)c1ccccc1F	-8	9173	4	5.6	0	3	2
O=C(CNS(=O)(=O)c1cccc2nonc12)NCc1ccc(F)cc1	-2	3851	9	5.6	-11	19	0
c1ccc(CCn2nnnc2CN2CCC(n3nnc4ccccc43)CC2)cc1	-23	8136	9	5.7	2	12	-4
COc1ccc(C(=O)C2CCCN(C(=O)c3ccc(OC)o3)C2)c(C)c1 (configuration not stated)	-9	5564	5	-0.6	6	9	5
O=C(Nc1nnc(SCc2cccnc2)s1)C1CC(=O)N(c2ccc(F)cc2)C1 (configuration not stated)	-17	5261	7	0.1	-1	5	0
O=C(NN=Cc1ccccc1C(=O)O)C(=O)NN=Cc1ccccc1C(=O)O	2	2940	12	31	x	9	-14
O=c1[nH]c2c(=O)[nH]cnc2nc1-c1ccccc1	-50	3442	-1	-0.4	1	-8	3
CCn1c(COc2ccc(OC)cc2)nc2ccccc21	-40	u	6	5.2	4	7	-2
CCCCCCc1cc2cc(S(=O)(=O)c3ccc(F)cc3)c(=O)oc2cc1O	-7	8870	0	10	-2	1	-2
Cc1ccc(N2CCN(/N=C/c3cccnc3)CC2)cc1	-4	3574	x	x	13	x	x
COc1ccc(CCNC(=O)C2CC3Cn4c(nc5cc(Cl)c(Cl)cc54)C3N2C)cc1 (configuration not stated)	-26	3878	4	6.0	3	11	5
COc1cccc(CC(NC(C)=O)C(=O)NC2CCN(C(=O)c3ccncc3)CC2)c1OC (configuration not stated)	-20	5291	-20	1.9	2	2	-1
COc1ccccc1C(=O)NNC(=O)C(=O)Nc1ccc(C)c(Cl)c1	-4	4236	x	x	12	x	x
COc1cc(CCC(=O)N2CCN(c3ccc(N4CCOCC4)nn3)CC2)cc(OC)c1OC	x	x	9	3.5	7	8	8
CC(C)c1cc(=O)[nH]c(SCC(=O)NC2CCCC2)n1	4	5654	8	2.7	-2	14	-1
CCC(C)CCN1C(Nc2ccccc2)=NCC1Cc1ccccc1 (configuration not stated)	x	x	3	1.0	x	12	2
Cc1ccc(S(=O)(=O)N(CC(=O)NN=Cc2ccc(F)cc2)c2cccc3cccnc23)cc1	x	x	-3	-1.4	x	4	-4
Cc1ccc(C)c(OCC(=O)NC(Cc2c[nH]c3ccccc23)C(=O)O)c1 (configuration not stated)	-15	4450	5	4.0	4	-5	3

Sorted by length of the SMILES (smallest number first): part of the list above.
SMILES	PrP UTR inh	Bead autofluor	Mtb hypoxia inh	Sa RN4220 lethal	BJeLR viability	Mtb hypoxia inh growth	ugtP null kill
O=C(Nc1ncccc1Cl)c1ccccc1F	-8	9173	4	5.6	0	3	2
CCn1c(COc2ccc(OC)cc2)nc2ccccc21	-40	u	6	5.2	4	7	-2
Cc1ccc(N2CCN(/N=C/c3cccnc3)CC2)cc1	-4	3574	x	x	13	x	x
O=c1[nH]c2c(=O)[nH]cnc2nc1-c1ccccc1	-50	3442	-1	-0.4	1	-8	3
CCC(C)CCN1C(Nc2ccccc2)=NCC1Cc1ccccc1 (configuration not stated)	x	x	3	1.0	x	12	2
CC(C)c1cc(=O)[nH]c(SCC(=O)NC2CCCC2)n1	4	5654	8	2.7	-2	14	-1
CN=C1S/C(=C\c2ccc(N3CCOCC3)c(F)c2)C(=O)N1C	-41	7703	6	0.1	2	2	2
c1ccc(CCn2nnnc2CN2CCC(n3nnc4ccccc43)CC2)cc1	-23	8136	9	5.7	2	12	-4
COc1ccc(C(=O)C2CCCN(C(=O)c3ccc(OC)o3)C2)c(C)c1 (configuration not stated)	-9	5564	5	-0.6	6	9	5
CCCCCCc1cc2cc(S(=O)(=O)c3ccc(F)cc3)c(=O)oc2cc1O	-7	8870	0	10	-2	1	-2
COc1cccc(NC(=O)COC(=O)CC(NC(N)=O)c2ccc(Cl)cc2)c1 (configuration not stated)	-30	6698	7	2.9	-10	4	-1
O=C(Nc1nnc(SCc2cccnc2)s1)C1CC(=O)N(c2ccc(F)cc2)C1 (configuration not stated)	-17	5261	7	0.1	-1	5	0
COc1cc(CCC(=O)N2CCN(c3ccc(N4CCOCC4)nn3)CC2)cc(OC)c1OC	x	x	9	3.5	7	8	8

Additional records follow.
SMILES	PrP UTR inh	Bead autofluor	Mtb hypoxia inh	Sa RN4220 lethal	BJeLR viability	Mtb hypoxia inh growth	ugtP null kill
CCN1CCN(CCCN(Cc2ccco2)C(=S)Nc2cc(Cl)ccc2C)CC1	-15	4211	12	5.4	3	6	4
CCOc1ccc(-n2cnnn2)cc1S(=O)(=O)NCCc1ccc(OC)c(OC)c1	-29	5328	-3	3.2	-20	11	3
CN1CCC(Oc2ccc(Sc3ccccc3)cc2)CC1	-38	8949	16	-0.9	4	14	94*
COC(=O)C1CCN(C(=O)c2sc3nc(-c4ccc(F)cc4)cn3c2C)CC1	-19	8897	4	4.1	x	16	-2
CCCNc1ncnc2onc(C)c12	-10	4247	9	2.0	x	14	8
N#CC1(c2ccc(NC(=O)c3ccccc3)cc2)CCCC1	-50	3824	x	x	-7	x	x
O=C(CN1CCSC1=O)N1CCN(S(=O)(=O)c2ccc(Cl)cc2)CC1	-21	x	9	2.9	x	-1	2
O=C(NC(=S)NCCO)c1cn(-c2ccccc2)nc1-c1ccccc1	-66	3518	-1	-3.0	-11	17	-13
CC1CC/C(=C\c2ccc3c(c2)OCO3)C(=O)/C1=C/c1ccc2c(c1)OCO2 (configuration not stated)	-16	5011	-1	32	0	5	-9
O=C(Nc1ccc([N+](=O)[O-])cn1)c1cc(-c2cccc(Br)c2)nc2ccccc12	-20	7600	0	-13	-11	-1	-21
COc1ccc(Cn2c(N)c(C(=O)NCc3ccco3)c3nc4ccccc4nc32)cc1	-13	3536	1	-7.5	5	1	-17
COc1ccc(/C=C/CN2CCN(Cc3cccc(OC)c3)C(CCO)C2)cc1 (configuration not stated)	-24	4710	-5	3.3	4	7	6
CC1(C)CC(=O)C(Sc2ccccc2)=C(O)C1	-2	5764	4	3.2	-2	2	10
COc1cc(NC(=O)c2ccco2)c(OC)cc1NC(=O)Nc1ccccc1Cl	-20	10294	-9	-1.0	-8	1	-11
O=C1N2CCSC2=NC1(Nc1nccs1)C(F)(F)F (configuration not stated)	-13	5885	4	12	0	-2	2
COc1ccc(OC)c(C(=O)N(C[C@H]2CC[C@@H]([C@@H]3CC[C@H](CO)O3)O2)C(C(=O)NC(C)(C)C)c2ccc(-c3ccccc3)cc2)c1 (some centres not stated)	-21	3070	4	8.2	x	-1	-5
Cc1ccc(C(C(=O)NC(C)(C)C)N(C(=O)c2csnn2)c2ccccc2F)o1 (configuration not stated)	-33	u	1	5.3	4	3	5
CC(=O)NCCC1CCCCN1Cc1nc(Cc2cccc(C(F)(F)F)c2)no1 (configuration not stated)	-21	4326	8	6.1	2	0	9
Cc1cc(C)nc(SCc2ccc([N+](=O)[O-])cc2)n1	-31	4160	-7	3.8	x	3	9
O=C(NCc1ccco1)c1cccc(Nc2nc3ccc(Br)cc3[nH]2)c1	-19	2841	11	-1.9	3	-5	-3
CNC(=O)COC(=O)c1cc(SC)ccc1Cl	-21	4635	8	8.6	-3	9	6
CC(C)(C)C(=O)NC(NC(=S)Nc1sc2c(c1C#N)CCCC2)C(Cl)(Cl)Cl (configuration not stated)	-3	4229	-8	-5.1	7	9	-26
O=C1c2ccccc2C(=O)N1Cc1nc2ccccc2c(=O)n1-c1ccc(Br)cn1	-18	6475	x	0.8	-3	x	3
O=C(COc1ccccc1O)N1CCN(C(=O)c2ccco2)CC1	-8	2593	9	2.0	-5	1	8
COCC1=C(C(=O)OC)C(c2cccs2)n2ncnc2N1 (configuration not stated)	-29	5966	9	1.9	2	-5	-1
O=C1C2C3C=CC(C3)C2C(=O)N1c1cccc(N2C(=O)C3C4C=CC(C4)C3C2=O)n1 (configuration not stated)	-8	22915*	10	0.3	4	4	-1
Cc1ccc(N2CN(S(=O)(=O)c3cccc([N+](=O)[O-])c3)c3nc4ccccc4nc32)cc1	-4	4566	-5	-5.6	5	-2	-5
O=C(Nc1ccc(Cl)c(Cl)c1)OCc1cnc(Cl)s1	10	2123	x	-12	-1	x	-21
COc1ccc(S(=O)(=O)N(CC(=O)NCc2cccnc2)C2CCCCC2)cc1OC	-14	4947	13	3.0	-1	6	2
COc1ccc(C(=O)Nc2ccc(NC(=O)c3ccco3)c(Cl)c2)cc1OC	-28	6071	6	0.9	-2	1	3
COC(=O)C1=NNC2(c3ccc(Cl)cc3)C(=O)N(c3ccccc3)C(=O)C12 (configuration not stated)	-7	2603	6	4.1	-1	6	0
C=CCNC(=S)NCc1cccnc1	-18	2439	18	4.2	-10	-3	3
COc1ccc(/C=N/NC(=O)c2ccncc2)c(C(=O)O)c1OC	9	4465	x	x	-3	x	x
CCOC(=O)/C=c1\s/c(=C\c2ccc(-c3ccccc3)cc2)c(=O)n1CC(=O)NCc1ccc2c(c1)OCO2	13	2103	x	x	-20	x	x
CCCCNC(=O)OC1CC2CCCC(=O)N3CCC(C1)C23 (configuration not stated)	x	x	-2	-2.4	x	-5	-7
Cc1ccc(S(=O)(=O)Nc2ccc(O)c3ncccc23)cc1	-18	6596	x	4.8	3	x	-2
CCCCCN(C(=O)CCC(=O)OCc1cc(C)ccc1C)c1c(N)n(CCCC)c(=O)[nH]c1=O	-2	3970	5	-0.5	-4	-8	6
